Beta2AR agonist: agonists of human beta-2 adrenergic receptor inducing internalization; Am2.2-beta2AR cells, FAP receptor internalization, flow cytometry; reference of the scale not given here; 0.43% of 340,000 active; response, % (concentration not given with the values); P07550;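 active means response above a set limit, near 3 SD of response in nonfluorescent compounds, cut at about 42% in these data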;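 further: stock transfer was 100 nL into about 11 µL; a reference agonist was the positive control; negative values mostly stem from fluorescent compounds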
Target sequence (P07550 whole entry, looked up): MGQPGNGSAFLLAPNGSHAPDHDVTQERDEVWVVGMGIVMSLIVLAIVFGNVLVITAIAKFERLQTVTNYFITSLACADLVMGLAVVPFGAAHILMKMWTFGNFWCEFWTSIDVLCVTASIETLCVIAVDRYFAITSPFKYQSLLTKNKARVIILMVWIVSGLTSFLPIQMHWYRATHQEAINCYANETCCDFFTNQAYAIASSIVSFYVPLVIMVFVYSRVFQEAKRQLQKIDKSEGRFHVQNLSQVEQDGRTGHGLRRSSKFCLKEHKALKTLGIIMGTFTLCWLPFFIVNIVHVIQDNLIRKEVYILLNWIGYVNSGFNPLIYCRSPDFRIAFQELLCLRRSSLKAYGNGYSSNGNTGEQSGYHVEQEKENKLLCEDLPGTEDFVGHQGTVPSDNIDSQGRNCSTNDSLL
T cruzi inh: blocks replication of Trypanosoma cruzi; 1.4% of 300,000 active; T. cruzi beta-gal in NIH3T3, luminescence, 90 h; inhibition, % (concentration not given with the values);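 active means mean inhibition across valid replicates above about 55%, limit read from the data; inconclusive means mean below that limit but half or more replicates reach it; inactive means mean below it, under half of replicates reach it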;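 further: signal also drops with host cell toxicity which is not excluded here; 0% = plate median of DMSO wells and 100% = zero luminescence signal; higher percent means less beta-gal luminescence so fewer parasites; stock transfer was 50 nL into about 50 µL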
Calb FLC: C. albicans growth modulation with fluconazole; C. albicans CaCi-2 (fluconazole-resistant clinical isolate) + fluconazole, Alamar Blue growth, 48 h; growth inhibition, % (test concentration not listed); 0.57% of 300,000 active; AID 1979;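 active means most replicates above 75%; inconclusive means exactly half above 75%; inactive means most below 75%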;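 further: all wells also contain fluconazole at 8 µg/ml as a sub-toxic cotreatment; 0% = median of DMSO wells and 100% = median of geldanamycin control wells; wells of about 8 µL received 7.5 nL stock; the first replicate is given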
UCH37 DUB inh: inhibitors of human deubiquitinating enzyme UCH37 | 0.33% of 330,000 active | purified proteasome/UCH37, Ub-AMC cleavage fluorescence | inhibition, % (test concentration not listed) | AID 588478;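 active means mean of two replicates above 20%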;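 further: 0% = compound-free wells with enzyme and 100% = wells lacking proteasome; stock transfer was 100 nL into about 20 µL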
Target sequence (Q9Y5K5 whole entry, looked up): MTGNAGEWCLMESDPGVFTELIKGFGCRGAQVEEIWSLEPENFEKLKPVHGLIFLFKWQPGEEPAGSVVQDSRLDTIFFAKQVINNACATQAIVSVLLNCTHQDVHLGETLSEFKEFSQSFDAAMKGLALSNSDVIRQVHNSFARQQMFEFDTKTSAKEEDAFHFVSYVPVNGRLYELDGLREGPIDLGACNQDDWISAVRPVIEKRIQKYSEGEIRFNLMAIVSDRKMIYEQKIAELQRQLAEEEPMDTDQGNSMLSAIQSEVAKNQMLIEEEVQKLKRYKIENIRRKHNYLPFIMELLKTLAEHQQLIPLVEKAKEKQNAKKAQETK
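Test system – human UCH37 enzyme supplied as purified proteasome complex · Incubation – 30 min preincubation with enzyme, 25 min cleavage at room temperature · Detection – AMC fluorescence from Ub-AMC cleavage, excitation 355 nm, emission 460 nm · Benchmarks – no-proteasome wells (full inhibition) and compound-free wells (no inhibition)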
Beta apoptosis: beta cell apoptosis inhibition; protection from apoptosis, % (test concentration not listed); 0.8% of 300,000 active; INS-1E cytokine-induced death, ATP luminescence, 48 h; percent of positive-control rescue, neutral wells zero;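 active means all replicates at 75% or more, or half of them and the mean; inconclusive means half reach 75% but not the mean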;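 further: 0% = cytokine-treated negative control wells and 100% = positive control rescue; higher means more ATP so stronger rescue from cytokine killing; wells of about 40 µL received 100 nL stock; the first replicate is given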
RanGTP-Impb inh: inhibitors of RanGTP-importin-beta interaction, primary screen, biochemical, FRET, CFP-Ran, YFP-importin-beta, homogeneous | cell-free CFP-Ran/YFP-importin-beta FRET ratio | inhibition, % (no concentration beside the values) | 1.1% of 300,000 active;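 active means most replicates above 15%; inconclusive means exactly half above 15%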;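 further: 0% = DMSO wells and 100% = Ran loaded with GDP instead of GTP; wells of about 40 µL received 100 nL stock; the first replicate is given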
LANA-H2A inh: blocks KSHV LANA binding to histone H2A/H2B; Q9QR71; cell-free LANA-H2A/H2B peptide, fluorescence polarization; inhibition, % (concentration not given with the values); 0.6% of 320,000 active; AID 2629; in the data active means inhibition mostly above about 10%, no sharp cut-off; inactive means mostly below about 6.7%;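 further: stock transfer was 7.5 nL into about 10 µL; 0% = median of vehicle wells and 100% = median of positive control wells; one replicate is shown; the record names a cut of 25% in any replicate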
A1 inh: inhibitors of the anti-apoptotic protein A1, read as caspase activation. MEF A1-2A-BIM cells, Caspase-Glo 3/7 luminescence, 3 h; percent of clofoctol response, vehicle zero. caspase activation, % (concentration not given with the values). 0.066% of 330,000 active. AID 2462;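 active means over half of replicate activation scores above 10%, or exactly half above 10 with the replicate mean above 10; inconclusive means replicate mean below 10 yet half the replicates above 10; inactive means over half of replicates below 10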;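 further: wells of about 30 µL received 50 nL stock; many hits fall short of the cut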
An asterisk follows results filed as active; ? = inconclusive; · = no result given. An unsorted share of the library. Share with any hit: about 4.3%.

SMILES	Beta2AR agonist	T cruzi inh	Calb FLC	UCH37 DUB inh	Beta apoptosis	RanGTP-Impb inh	LANA-H2A inh	A1 inh
CC(C)(C)n1nnnc1C(c1cccnc1)N1CCN(c2ccccc2)CC1 (stereo not given)	0	55*	-4	11	0	2.2	8.5	-0.2
O=C(CCN1C(=O)C2CCCCC2C1=O)N1CCN(S(=O)(=O)c2ccccc2)CC1 (stereo not given)	7	-10	5	-1.9	1	·	1.4	0.3
Cc1ccc(NC(=O)COC(=O)Cn2cnc3ccccc32)cc1S(=O)(=O)N(C)C	-3	-4	23	0.7	-3	-2.9	1.1	-0.2
COc1ccc(CCNS(=O)(=O)c2ccc3c(c2)CCN3C(=O)C2CC2)cc1OC	-6	1	-2	3.0	1	2.5	6.4	-0.2
O=C(Nc1nc(-c2ccc(Cl)s2)cs1)c1ccncc1	0	9	-37	4.1	10	5.2	0.5	0.3
COC(=O)c1ccc(NC(c2ccc(Cl)cc2)P(=O)(OC)OC)cc1 (stereo not given)	-4	-12	-10	4.6	·	-2.3	-1.5	0.2
O=C(/C=C/c1cccs1)Nc1cccnc1	4	-26	6	10	2	-0.9	-1.6	0.1
O=c1[nH]c(N/N=C/c2ccccc2)nc2ccccc12	-8	-1	23	·	5	?	0.5	-7.6
Cc1cc(C(=O)CSc2nc3ccc(Cl)cc3[nH]2)c(C)n1C	-5	10	12	4.0	1	-0.6	5.4	0.2
O=C(Nc1ccccc1)C1=C(N2CCOCC2)/C(=C/c2cccnc2)CC1	-7	-12	-4	4.2	-10	5.1	-0.5	-0.7
CCCC(=O)NC1C2CC3CC(C2)CC1C3 (stereo not given)	2	-1	6	-0.3	-5	5.4	-2.6	0.8
COC(=O)c1ccccc1NC(=O)/C=C/C(=O)O	8	4	-7	2.9	-14	-3.6	3.3	0.3
CCc1ccc(-c2cc(C)no2)cc1S(=O)(=O)Nc1ccc(C)cn1	1	-6	-1	-51	-3	1.3	4.2	0.6
CC(C)Cc1nc(SCC(=O)Nc2ccc(S(N)(=O)=O)cc2)n[nH]1	-3	-16	-14	2.7	-2	3.7	-0.1	0.2
Cc1ccc(C2=NN3C(C(=O)c4ccccc4)Oc4ccccc4C3C2)cc1 (stereo not given)	6	-1	0	1.1	-1	3.3	-1.3	0.5
O=C(NCc1ccccn1)c1nc(Cn2cc([N+](=O)[O-])cn2)no1	8	-5	-24	0.7	-9	-3.6	1.2	-2.4
CCN(CC(=O)NCc1ccc(F)cc1)C(=O)c1ccc2c(c1)OCO2	-8	·	·	-0.7	4	·	5.0	-0.7
Cc1cccc(C)c1NC(=O)c1cccc2c1-c1ccccc1C2=O	-5	-26	1	0.2	-1	?	-4.9	-0.3
COCCNC(=O)C(c1ccc(Cl)cc1)N(C(=O)CCC(=O)Nc1ccccn1)C1CCCC1 (stereo not given)	-5	3	-1	-0.1	5	-5.2	-1.0	0.2
CC(C)N1C(=O)c2ccc(C(=O)O)cc2C1=O	-3	-3	0	2.6	-1	5.5	-2.1	0.3
Cc1ccnc(N2CCN(C(=O)CSc3nc4ccccc4nc3N3CCC(C)CC3)CC2)c1	1	16	-1	-14	-7	-5.1	-6.2	1.0
CC(C)N(Cc1nc(-c2ccc(Cl)cc2)no1)C(=O)CN(C)S(=O)(=O)c1ccc(Cl)cc1	-3	56*	-17	-0.4	-2	-0.1	-5.3	0.2
C[C@@H](C(=O)Nc1ccc2c(c1)OCCO2)n1c(=O)[nH]c2ccccc2c1=O	0	-6	-2	1.9	·	7.1	-6.9	-1.2
O=C(CCNS(=O)(=O)c1ccccc1)NCCSc1ccc(Br)cc1	-4	·	·	2.4	-4	·	0.6	2.0
CCc1nc2ccccc2c(C(=O)Nc2cc(C)ccc2C)c1C	-22	-2	-2	-0.2	-2	?	-2.8	1.2
Cc1ccc(Nc2nnc(SCC(=O)NC3CCS(=O)(=O)C3)s2)c(C)c1 (stereo not given)	6	0	17	3.8	2	3.1	-5.4	-0.7
Cc1ccccc1S(=O)(=O)Cc1ccc(C(=O)NCc2cccnc2)o1	-2	-16	8	0.0	2	?	-2.4	-0.5
COCCNC(=O)COc1ccc(N(C)S(=O)(=O)c2ccc3ccccc3c2)cc1	4	-17	-5	2.7	-9	-2.5	-2.1	2.5
CCCN(CC(=O)Nc1ccccc1OC)C(=O)c1cc(-c2cccs2)nn1-c1ccccc1	12	32	-8	2.4	-2	0.3	·	-0.9
CCn1c(CSc2nncn2-c2ccc(OC)cc2)nc2cc(S(=O)(=O)N(C)C)ccc21	-11	6	5	-2.7	2	-4.5	4.3	0.1
CCCOc1ccc(NC(=O)C2CC(=O)N3CCCN=C3S2)cc1 (stereo not given)	-7	-7	5	3.1	-14	-1.3	1.0	-0.5
CCCOc1cc(C)c(S(=O)(=O)NCCOC)cc1C	-24	-5	?	0.3	-6	1.0	-1.1	0.7
CC(=O)c1ccc(NC(=O)c2noc(C(C)C)c2[N+](=O)[O-])cc1	6	-15	13	2.1	0	-1.1	1.8	-1.7
CCOC(=O)C1=C(C)N(CCCC(=O)O)C(=O)NC1c1ccc2ccccc2c1 (stereo not given)	-4	21	-3	4.9	-5	3.0	-0.9	0.8
O=C(Cc1cccs1)N1CCN(S(=O)(=O)c2ccc(Cl)c(C(F)(F)F)c2)CC1	-2	·	·	2.1	1	·	-1.7	-0.7
NC(=S)Nc1cccc2cccnc12	-1	0	25	2.5	-6	-3.3	-4.8	0.1
COc1ccc(/C=N/NC(=O)c2cc(C)n(-c3ccccc3)c2C)cc1OC	6	11	-4	·	-1	·	-5.9	2.3
Cc1ccc(NC(=O)CSc2nc3nc(C)cc(C)c3c(=O)[nH]2)cc1	-4	-5	3	4.7	-2	0.9	-4.9	-0.3
CCN1CCN(c2nc3c(C)cccn3c(=O)c2/C=C(\C#N)C(=O)NCCOC)CC1	2	-6	-5	-14	-12	-49	-3.4	0.9
CS(=O)(=O)Nc1nc2n(n1)C(c1ccccc1)C=C(c1ccc(Br)cc1)N2 (stereo not given)	15	-2	19	-194	3	-197	14	-0.3

Retrieved one by one from above, 2 records:
SMILES	Beta2AR agonist	T cruzi inh	Calb FLC	UCH37 DUB inh	Beta apoptosis	RanGTP-Impb inh	LANA-H2A inh	A1 inh
CS(=O)(=O)Nc1nc2n(n1)C(c1ccccc1)C=C(c1ccc(Br)cc1)N2 (stereo not given)	15	-2	19	-194	3	-197	14	-0.3
Cc1ccc(NC(=O)CSc2nc3nc(C)cc(C)c3c(=O)[nH]2)cc1	-4	-5	3	4.7	-2	0.9	-4.9	-0.3

Later entries.
SMILES	Beta2AR agonist	T cruzi inh	Calb FLC	UCH37 DUB inh	Beta apoptosis	RanGTP-Impb inh	LANA-H2A inh	A1 inh
Cc1cc(NC(=O)CCN2CCCCC2)ccc1Br	-7	-5	-5	4.8	·	?	-2.9	1.2
O=C(c1csc2c1CCCCC2)N1CCN(c2ncccn2)CC1	-7	-7	5	-3.9	-2	2.3	-0.9	0.4
CCCCC1=CC2=CC(=O)C(C)(OC(=O)CC)C(=O)C2=CN1c1ccccc1 (stereo not given)	8	24	18	0.7	-4	0.7	1.1	0.2
CCC(=O)NC(=S)Nc1ccc(NC(=O)COc2ccc(Cl)c(C)c2)cc1	-22	22	2	3.5	7	4.3	1.4	-0.3
CC(C)(C)OC(=O)NCCCC[C@H](NC(=O)c1nc[nH]c1C(=O)NC1CCN(C(=O)OC(C)(C)C)CC1)C(=O)OC(C)(C)C	12	24	28	4.4	26	1.9	2.9	-1.3
O=c1c2oc3ccccc3c2ncn1Cc1ccc(F)cc1	-3	-3	34	5.1	1	-1.6	-2.2	-0.7
CCCNC(=O)C(Cc1ccccc1)NS(=O)(=O)c1ccc2c(c1)c(=O)n(C)c(=O)n2C (stereo not given)	6	7	-1	1.1	-2	?	-3.5	0.3
CC(C)Oc1cc(C(=O)NC2CCCCC2)c2ccccc2n1	0	11	0	-6.5	6	-0.2	7.6	1.7
Cc1ccc(C(=O)OCC(=O)NCCN2C(=O)CSC2=O)cc1[N+](=O)[O-]	1	·	·	2.7	2	·	1.8	0.2
CN(C)C(=O)c1cc(C(=O)Cc2ccccc2)c[nH]1	-15	-24	18	-0.2	1	?	2.6	-0.7
Cc1cccc(S(=O)(=O)c2c(N)n(/N=C/c3cccnc3)c3nc4ccccc4nc23)c1	31	-12	-3	·	5	0.3	6.1	0.4
CCc1cccc(CC)c1NC(=O)CN1CCc2cc(OC)c(OC)cc2C1	7	-6	6	1.6	-6	2.7	1.9	-0.7
CCOc1c(CNc2nnnn2C)cccc1OC	3	-16	8	-0.9	-2	-2.5	3.8	-0.2
CC(/C=C/c1ccco1)=N/NC(=O)c1ccc(C)nc1	-10	-25	-2	·	·	4.2	0.2	-1.2
CCc1csc(CCNC(=O)C2CCC(=O)N(CCc3cccc(F)c3)C2)n1 (stereo not given)	0	-10	-18	2.7	3	4.9	12	0.9
COc1cccc(/C=C2\Oc3cc(OCC(=O)N4CCC[C@H]4C(=O)O)ccc3C2=O)c1	3	-4	-8	5.5	-1	-1.6	0.2	-0.2
O=C(COC(=O)c1ccccc1NCc1ccco1)Nc1ccc2c(c1)OCO2	3	9	-9	-153	3	1.0	3.7	-1.0
Clc1cccc(-c2nn3c(Cn4cnc5ccccc54)nnc3s2)c1	-16	·	37	3.7	4	2.7	-1.0	-0.6
CCc1cc(=O)oc2cc(OC(C)C(=O)NCc3ccccn3)ccc12 (stereo not given)	-7	-10	-2	-29	5	3.1	-5.1	0.5
Cc1ccc(/C=N/NC(=O)Cc2cccn2C)cc1	2	-12	4	·	2	0.4	11	0.8
CCS(=O)(=O)N1Cc2ccccc2CC1C(=O)Nc1ccc(C)cc1 (stereo not given)	13	0	-14	4.8	-3	0.8	-4.4	-0.1
COc1ccc(NC(=O)CN(C)C(=O)c2cc(-c3ccco3)nc3ccccc23)cc1	6	-9	·	-369	-2	-1.0	0.3	0.6
Cc1nnc(SCCCOc2ccccc2)nc1C	-5	-13	-4	1.1	-2	2.1	-3.0	0.5
Cc1ccc(C)n1NC(=O)c1ccc([N+](=O)[O-])cc1	-3	-17	-25	1.2	1	-1.2	-2.6	0.2
CC1(C)C2CC=C(/C=N/NC(=S)NCCc3ccccc3)C1C2 (stereo not given)	8	6	-6	·	7	1.7	-2.1	0.6
CCSc1nc2ccccc2c(=O)n1OCC(=O)OC	-10	-14	-21	6.0	·	-1.8	-0.7	-0.2
CN1CCN(S(=O)(=O)c2cccc(C(=O)Oc3cccc(Br)c3)c2)CC1	3	1	-7	4.5	-8	4.2	3.9	-0.8
COc1cc(C2C(C#N)=C(N)Oc3cc(C)oc(=O)c32)cc2c1OCO2 (stereo not given)	2	-14	21	0.7	-3	4.4	0.5	-0.9
O=C(N/N=C/C=C/c1ccccc1)c1cccnc1	-6	-31	23	·	-4	1.3	-6.6	0.8
COC(=O)c1ccc(S(=O)(=O)N2CCCCCC2)cc1	15	4	-6	3.9	4	-5.0	-3.3	0.9
COCCN(CCOC)C(=O)CC(=O)N(CCOC)CCOC	-1	-24	-1	-0.1	3	2.0	-14	0.3
CCn1c(CC(=O)Nc2ccccc2F)nnc1SCC(=O)NC1CCCC1	2	-4	-6	-0.1	-4	2.5	1.2	-0.1
O=C(NCCc1ccccc1)C(=O)c1c(-c2ccccc2)cc2ccccn12	-3	24	0	1.0	-6	-1.1	0.6	0.9

Source: PubChem BioAssay
